Compound activity (PubChem)
UCH37 DUB inh: blocks the human deubiquitinase UCH37; Q9Y5K5; purified proteasome/UCH37, Ub-AMC cleavage fluorescence; inhibition, % (no concentration beside the values); 330,000 tested, 0.33% active;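 active = mean of two replicates above 20%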;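 also: 0% = compound-free wells with enzyme and 100% = wells lacking proteasome; stock transfer was 100 nL into about 20 µL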
Target sequence (Q9Y5K5 whole entry, looked up): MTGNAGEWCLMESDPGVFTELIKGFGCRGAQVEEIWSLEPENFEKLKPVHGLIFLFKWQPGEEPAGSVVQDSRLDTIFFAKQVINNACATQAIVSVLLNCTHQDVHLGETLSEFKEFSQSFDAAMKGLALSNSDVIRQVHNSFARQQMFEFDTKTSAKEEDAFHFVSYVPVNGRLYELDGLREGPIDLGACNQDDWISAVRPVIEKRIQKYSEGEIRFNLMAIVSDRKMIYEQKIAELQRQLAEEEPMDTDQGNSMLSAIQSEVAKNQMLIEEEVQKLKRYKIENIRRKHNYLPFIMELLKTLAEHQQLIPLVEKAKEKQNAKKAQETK
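Signal – fluorescence, ex 355 nm, em 460 nm · System – Proteasome-bound UCH37 · Input – 0.15 nM proteasome as dispensed · Timing – 30 min preincubation with enzyme, 25 min cleavage at room temperature · Read-out basis – percent inhibition of cleavage signal versus uninhibited and no-proteasome wells · Medium – Tris-HCl pH 7.4 with ATP-MgCl2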
Ecoli growth: blocks Escherichia coli growth; AID 1053175; OD600, 23 h; active compounds read low; 330,000 tested, 0.21% active; OD600 absorbance (test concentration not listed);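 active = OD600 absorbance below the run mean of sample wells minus 3.6 SD, in any replicate, cut at about 0.56 in these data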;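 also: stock transfer was 300 nL into about 60 µL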
LANA-H2B inh: blocks KSHV LANA binding to histone H2A/H2B. Q9QR71. 320,000 tested, 0.6% active. inhibition, % (no concentration beside the values). cell-free LANA-H2A/H2B peptide, fluorescence polarization. AID 2629; in the data active = inhibition mostly above about 10%, no sharp cut-off; inactive = mostly below about 6.7%;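 also: stock transfer was 7.5 nL into about 10 µL; 0% = median of vehicle wells and 100% = median of positive control wells; one replicate is shown; the record names a cut of 25% in any replicate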
HNF4A DNA FP: change in binding of human HNF4 alpha to DNA; P41235; HNF4a-FITC DNA binding, fluorescence polarization, 1 h; activity change, % at 10 µM; 360,000 tested, 0.3% active; AID 1224865; in the data active = activity change above about 30%, passing the limit was not always enough;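 also: controls were the assay level and a saturating level of protein; the project sought stronger binding though the title names inhibitors; some compounds called inactive have numbers as strong as hits; positive values seem to mean higher polarization but the record does not say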
Target sequence (P41235 whole entry, looked up): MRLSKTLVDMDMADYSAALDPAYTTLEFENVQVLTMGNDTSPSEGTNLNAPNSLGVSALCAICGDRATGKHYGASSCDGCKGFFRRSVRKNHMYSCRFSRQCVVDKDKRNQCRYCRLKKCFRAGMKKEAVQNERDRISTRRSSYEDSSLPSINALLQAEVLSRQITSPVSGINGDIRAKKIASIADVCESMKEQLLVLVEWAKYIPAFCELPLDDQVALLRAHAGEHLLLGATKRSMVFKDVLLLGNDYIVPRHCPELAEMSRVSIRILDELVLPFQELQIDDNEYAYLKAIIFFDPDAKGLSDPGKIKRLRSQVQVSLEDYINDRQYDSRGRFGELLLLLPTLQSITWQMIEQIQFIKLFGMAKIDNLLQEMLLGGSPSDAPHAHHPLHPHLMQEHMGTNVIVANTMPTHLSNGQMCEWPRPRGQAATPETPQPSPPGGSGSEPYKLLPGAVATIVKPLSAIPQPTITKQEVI
FGF22 binding: shifts melting point of recombinant human FGF22 | Q9HCT0 | recombinant FGF22 thermal shift, SYPRO orange fluorescence; percent of sucrose octasulfate shift, DMSO zero | calls only at 9.99 µM | 340,000 tested, 1.5% active;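 active = melting point raised past a set limit in the mean and every replicate; three in four hits are not shown here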
Beta2AR agonist: activates human beta-2 adrenergic receptor causing internalization | P07550 | Am2.2-beta2AR cells, FAP receptor internalization, flow cytometry; reference of the scale not given here | response, % (no concentration beside the values) | 340,000 tested, 0.43% active | AID 504454;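 active = response above a set limit, near 3 SD of response in nonfluorescent compounds, cut at about 42% in these data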;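 also: stock transfer was 100 nL into about 11 µL; a reference agonist was the positive control; negative values mostly stem from fluorescent compounds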
ALR inh: human ALR oxidase inhibition via reduced H2O2. P55789. purified ALR, DTT oxidation, H2O2 HRP-luminol luminescence. inhibition, % (concentration not given with the values). 290,000 tested, 3.8% active;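 active = mean and each replicate at 75% or more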;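 also: stock transfer was 7.5 nL into about 7.5 µL; 0% = neutral wells and 100% = wells with inactivated enzyme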
Target sequence (P55789 whole entry, looked up): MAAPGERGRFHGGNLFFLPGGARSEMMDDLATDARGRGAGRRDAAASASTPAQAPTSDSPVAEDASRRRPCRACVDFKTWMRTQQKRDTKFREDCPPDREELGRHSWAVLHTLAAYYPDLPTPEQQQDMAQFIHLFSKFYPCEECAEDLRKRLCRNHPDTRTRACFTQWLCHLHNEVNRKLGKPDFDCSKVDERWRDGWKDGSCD
Numbers without * were called inactive; i = inactive; nt = not tested or not shown. A portion of the library, so the mix of outcomes need not match the whole.

Second line of a record: UCH37 DUB inh	Ecoli growth	HNF4A DNA FP	FGF22 binding	LANA-H2B inh	Beta2AR agonist	ALR inh
[1] O=C(/C=C/c1cccc([N+](=O)[O-])c1)Nc1cc(C(=O)O)cc(C(=O)O)c1
  1.2	nt	1.1	i	-2.7	1	7
[2] CC(Sc1ccccc1)C(=O)NCC1COc2ccccc2O1 (stereo unspecified)
  0.3	0.71	-2.6	i	-0.2	5	16
[3] Cc1ccccc1C(=O)N1CCC(C(=O)Nc2ccc(S(=O)(=O)N3CCCCC3)cc2)CC1
  0.0	0.7	2.2	i	-5.6	5	4
[4] CC(=O)Nc1cccc(NC(=O)COc2ccccc2C)c1
  4.4	0.68	-2.5	i	-1.1	-2	-4
[5] O=S(=O)(CCCc1ccccc1)c1ncn[nH]1
  0.5	0.64	2.5	nt	2.8	6	nt
[6] CCOC(=O)c1sc(NC(=S)NC(=O)C2CCCC2)cc1C
  5.7	0.71	4.4	nt	-8.4	-2	-1
[7] O=C(CCCC(=O)NNC(=O)Nc1ccccc1)NNC(=O)Nc1ccccc1
  0.7	0.66	1.9	i	0.6	1	-1
[8] CC1(C2CC2)NC(=O)N(CC(=O)Nc2ccc(F)cc2F)C1=O (stereo unspecified)
  2.0	0.64	3.3	i	-2.4	0	-2
[9] CC(Sc1nnc(-c2cccs2)n1Cc1ccccc1)C(=O)NCc1ccc2c(c1)OCO2 (stereo unspecified)
  -3.8	0.73	0.5	nt	-1.0	7	-9
[10] Cc1ccc(S(=O)(=O)Cc2csc(N)n2)cc1
  -0.1	0.69	0.0	nt	-2.0	9	-2
[11] COc1ccc(-c2c(C)nn3c(N)c(C#N)cnc23)cc1OC
  -11	0.7	-0.8	i	0.0	17	-4
[12] CSc1nc2ccccc2cc1/C=C(\C#N)c1cccc(Cl)c1
  -6.3	0.78	3.7	nt	-0.3	1	-7
[13] O=c1[nH]c2ccccc2cc1CN(CC1CCCO1)S(=O)(=O)c1ccccc1 (stereo unspecified)
  1.2	0.65	-1.8	i	3.8	-17	1
[14] C=CCn1c(COc2ccc(Cl)cc2)nnc1SCc1ccc(C#N)cc1
  -1.7	0.7	1.6	nt	0.8	2	nt
[15] CC1(C)CC(c2nc(-c3ccc([N+](=O)[O-])cc3)cs2)CCO1 (stereo unspecified)
  3.5	0.7	-4.6	i	-2.0	-9	-16
[16] O=C(O)c1cccc(Nc2cc(Cl)c3nonc3c2[N+](=O)[O-])c1
  13	0.63	-5.3	i	1.7	-5	nt
[17] Cc1nn(-c2ccccc2)c2sc(C(=O)NC3CC3)cc12
  -0.9	0.67	-1.1	nt	-2.3	-10	36
[18] O=C(NNc1ncnc2c1cnn2-c1ccc(F)cc1)c1ccco1
  3.0	0.66	4.2	i	3.6	-1	6
[19] COc1ccc2c(ccc[n+]2CC(=O)c2ccc(C)cc2)c1
  -121	0.67	3.6	i	4.0	9	4
[20] CC(NC(=O)Cc1cccs1)C(c1cccs1)N1CCN(c2ccccc2F)CC1 (stereo unspecified)
  1.1	0.66	9.0	nt	-0.8	-3	-6
[21] COc1ccc(-c2cc(C(F)(F)F)nc(SCC(=O)Nc3cc(C)on3)n2)cc1
  -4.2	0.74	0.5	nt	-2.6	14	-10
[22] O=C(Cn1nc(-c2ccccc2)ccc1=O)NCCN1CCN(c2cccc(Cl)c2)CC1
  -2.0	0.72	0.2	nt	4.1	-7	43
[23] CN(C)c1nc2n(c(=O)n1)CCO2
  1.9	0.68	3.6	i	0.8	-1	-1
[24] Cc1ccccc1CS(=O)(=O)c1cn(CC(=O)N2CCOCC2)c2ccccc12
  -0.4	0.69	3.2	i	2.5	-1	-5
[25] CCn1cc(CN2CCc3c([nH]c4ccccc34)C2c2ccc(F)c(OC)c2)c(C)n1 (stereo unspecified)
  -20	0.66	-0.9	i	-1.8	-1	-13
[26] COc1ccc(NC(=S)N2CCCC2c2ccc(OC)c(OC)c2)cc1 (stereo unspecified)
  4.5	0.71	0.6	i	-0.8	14	-5
[27] COC(=O)CCCC1=CC2=C(c3ccccc3)C(=O)C(C)(OC(=O)C3CCCC3)C(=O)C2=CN1c1ccc(OC)cc1 (stereo unspecified)
  2.0	0.68	3.8	i	-0.7	7	-20
[28] Cc1cc(N2CCN(S(=O)(=O)c3ccc(C)c(C)c3)CC2)c2ccccc2n1
  3.5	0.73	4.9	i	1.0	-13	-7
[29] COC(=O)c1ccc(Nc2cc(C)nc3ccccc23)cc1
  -0.8	0.68	6.8	i	-5.5	-3	-10
[30] O=c1[nH]nc(Br)c(=O)n1C(c1ccccc1)c1ccccc1
  nt	nt	-3.6	i	nt	-1	nt

Continued.
Second line of a record: UCH37 DUB inh	Ecoli growth	HNF4A DNA FP	FGF22 binding	LANA-H2B inh	Beta2AR agonist	ALR inh
[31] CC(C)OC(=O)c1c(NC(=O)CCC(=O)O)sc2c1CCCCC2
  2.3	0.74	1.7	i	-3.3	9	7
[32] c1ccc(Oc2nc(NCc3ccco3)nc(NCc3ccco3)n2)cc1
  0.8	0.65	-1.2	nt	-2.6	-9	5
[33] Cc1ccc(-c2nnc(N3CCCCCC3)c3ccccc23)cc1
  1.0	0.58	0.5	i	3.1	-3	-4
[34] Cc1csc(NC(=O)Nc2ccccc2[N+](=O)[O-])n1
  0.8	0.6	-0.5	i	2.0	-4	30
[35] CC(C)CC(=O)Nc1nnc(SCC(=O)NCC2CCCO2)s1 (stereo unspecified)
  4.9	0.72	1.3	i	-6.8	3	-9
[36] N#C/C(=C\c1ccc(/C=C(/C#N)c2nn(CCO)c(N)c2C#N)cc1)c1nn(CCO)c(N)c1C#N
  5.5	0.68	2.8	nt	0.0	8	-1
[37] c1ccc(-c2nnc(SCc3nnc(-c4cccs4)o3)o2)cc1
  -4.5	0.6	-0.3	nt	-0.7	-13	1
[38] CCOC(=O)c1[nH]c(C)c(C(=O)Nc2ccc(C)c(F)c2)c1C
  6.4	0.68	1.9	i	4.4	-5	6
[39] Cc1ccc(S(=O)(=O)N2CCCCC2)cc1NC(=O)C1CC1
  1.6	0.68	-3.2	i	4.4	8	-3
[40] Cc1csc(NC(=O)C2=NN(c3ccccc3)C(=O)CC2)n1
  5.1	0.72	1.1	i	-1.4	0	-21
[41] Cc1cc(C)c2c(N)c(C(=O)N3CCCCCC3)sc2n1
  -33	0.68	0.0	nt	0.9	-22	21
[42] CC12CCC(=O)N1C(C(=O)Nc1cc(C(F)(F)F)ccc1N1CCOCC1)CS2 (stereo unspecified)
  2.0	0.67	-2.5	i	1.9	nt	17
[43] O=S(=O)(NC1CCCC1)c1ccccc1Br
  0.3	nt	2.3	i	3.9	-1	-9
[44] CN(CC(=O)NC1CCN(Cc2ccccc2)CC1)S(=O)(=O)c1ccc(Br)s1
  0.1	0.61	-1.0	i	2.1	7	-5
[45] C/C(=N\NS(=O)(=O)c1ccc(C)c([N+](=O)[O-])c1)c1cc2ccccc2o1
  nt	nt	1.1	nt	1.1	3	nt
[46] CCOC(=O)c1oc2cc(OCC(=O)OC)ccc2c(=O)c1-c1ccc(OC)c(OC)c1
  1.5	0.7	5.2	i	-7.1	7	-13
[47] COc1ccc(NC(=O)COC(=O)CCc2nc3ccccc3c(=O)[nH]2)cc1Cl
  0.8	0.65	1.9	i	2.0	2	5
[48] CCCC12CN3CCN(CC(C3)/C1=N\NC(=O)Nc1ccccc1)C2
  nt	nt	2.1	nt	3.4	0	-3
[49] COc1ccc(/C=N/n2c(C)nc3c([nH]c4ccccc43)c2=O)cc1CN1CCCC(C)(C)C1
  nt	nt	0.5	i	10.0	0	0
[50] O=C(Nc1nnc(Cc2ccccc2)s1)c1cnccn1
  6.0	0.7	-0.1	i	-0.8	1	-3
[51] OCCNC(=S)Nc1cc(Cl)cc(Cl)c1
  3.0	0.64	-1.2	i	-6.5	-1	-12
[52] COC(=O)C(C(=O)OC)C(C(=O)OC)C(C(=O)OC)C(=O)OC
  -1.1	0.78	-2.1	nt	0.6	-6	-5
[53] CCc1cccc(NC(=O)Cn2c3[n+](c4ccc(C(F)(F)F)cc42)CCCCC3)c1
  5.9	0.68	-0.7	i	3.6	-2	-14
[54] Cc1ccc(-c2ccc(CO)o2)cc1N
  -8.0	0.68	1.4	i	8.3	6	3
[55] O=C(Nc1ccc(F)cc1)c1ccccc1
  5.8	0.68	1.4	nt	8.3	6	-1
[56] Clc1ccc(-c2nc3n(n2)Cc2ccccc2-3)cc1
  3.8	0.73	1.4	nt	-1.2	-4	nt
[57] O=C(NNC(=O)C1CC2CCC1C2)c1sc2ccccc2c1Cl (stereo unspecified)
  4.7	0.66	-2.4	nt	-3.2	-4	7
[58] CCN(CC(=O)Nc1c(F)cccc1F)C(=O)/C=C/c1ccc2ccccc2n1
  nt	nt	-57	i	-1.4	1	13
[59] CCC(CO)NCc1ccc2c(c1)n(C)c(=O)n2C (stereo unspecified)
  0.5	0.62	-3.8	nt	-2.1	-10	-2
[60] CC(=O)Nc1ccc(S(=O)(=O)N[C@@H](C)C(=O)N(C)Cc2cccs2)cc1
  -1.0	0.71	-0.1	i	4.7	-7	-5

Next records follow.
Second line of a record: UCH37 DUB inh	Ecoli growth	HNF4A DNA FP	FGF22 binding	LANA-H2B inh	Beta2AR agonist	ALR inh
[61] COc1ccc(CCNC(=O)CSc2nc(-c3ccc(OC)c(OC)c3)ccc2C#N)cc1
  -424	0.72	5.8	nt	2.1	8	-2
[62] Cc1oc(-c2cccs2)nc1CS(=O)CC(=O)NCCCOC(C)C (stereo unspecified)
  1.5	0.73	2.0	nt	2.5	0	99*
[63] Cc1cc(NC(=O)CN2CCOCC2)n(-c2nc3ccccc3s2)n1
  0.6	0.69	nt	nt	1.0	nt	13
[64] O=c1c2ccccc2c(C=Nc2cccc(S(=O)(=O)NC3=NCCCCC3)c2)c(O)n1Cc1ccccc1
  1.9	0.69	-1.2	i	-2.1	3	-11
[65] Cc1oc(-c2ccccc2)cc1C(=O)Nc1ccccc1
  0.7	0.71	-6.3	nt	-0.7	5	-6
[66] COc1ccc(NC(=O)c2sccc2-n2cccc2)cc1
  -0.6	0.69	-2.0	i	-3.7	-4	0
[67] Cc1cc(C)cc(NC(=O)NC2CCCCCCC2)c1
  -0.7	0.64	-8.8	i	-2.5	4	-13
[68] Cc1sc2nc(CSCC(=O)Nc3ccccc3C#N)[nH]c(=O)c2c1C
  -5.8	0.69	14	nt	3.4	-4	98*
[69] COc1ccc2cc(CN(CC3COCCO3)S(=O)(=O)c3ccccc3)c(=O)[nH]c2c1 (stereo unspecified)
  -1.5	0.73	1.5	nt	nt	-4	nt
[70] C=CCn1c(=O)c(C(=O)Nc2ccc(C)cc2)c(O)c2ccccc21
  -107	0.72	3.7	i	-5.3	5	-8
[71] O=C(C1=C[C@@H](c2ccc3c(c2)OCO3)C[C@@H](OCc2ccc(CO)cc2)O1)N1CCOCC1
  -1.4	nt	1.1	i	-0.1	8	-3
[72] CC(C)CCNC(=O)NC(=O)COC(=O)C1=COCCO1
  1.8	0.75	2.1	nt	0.0	1	9
